Six1-Eya2 blk: inhibitors of human Six1/Eya2 interaction | AID 651725 | 0.56% of 360,000 active | AlphaScreen GST-Six1/His-Eya2 binding, biochemical; active compounds read low; control for the full effect not named in the record | activity change, % (no concentration beside the values) | Q15475+O00167; in the data active = activity change below about -65%; inconclusive = about -30% to -65%; inactive = above about -30%; note: % is set by controls: 0 for no effect and ±100 for the full control effect
Target sequence (O00167 whole entry, looked up): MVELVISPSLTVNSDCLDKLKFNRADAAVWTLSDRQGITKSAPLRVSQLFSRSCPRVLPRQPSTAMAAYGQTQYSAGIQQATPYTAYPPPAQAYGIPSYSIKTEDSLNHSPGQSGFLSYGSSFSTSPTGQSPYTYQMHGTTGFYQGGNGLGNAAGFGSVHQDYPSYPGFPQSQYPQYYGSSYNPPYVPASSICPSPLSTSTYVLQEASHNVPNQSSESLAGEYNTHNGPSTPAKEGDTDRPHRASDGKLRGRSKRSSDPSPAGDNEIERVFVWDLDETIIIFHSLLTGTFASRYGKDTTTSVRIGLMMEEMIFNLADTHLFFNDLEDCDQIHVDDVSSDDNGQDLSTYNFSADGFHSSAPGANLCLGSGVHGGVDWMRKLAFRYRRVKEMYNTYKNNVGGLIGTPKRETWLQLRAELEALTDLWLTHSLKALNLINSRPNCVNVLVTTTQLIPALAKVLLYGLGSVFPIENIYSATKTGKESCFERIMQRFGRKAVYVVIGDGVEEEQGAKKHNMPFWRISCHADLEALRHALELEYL
Target sequence (Q15475 whole entry, looked up): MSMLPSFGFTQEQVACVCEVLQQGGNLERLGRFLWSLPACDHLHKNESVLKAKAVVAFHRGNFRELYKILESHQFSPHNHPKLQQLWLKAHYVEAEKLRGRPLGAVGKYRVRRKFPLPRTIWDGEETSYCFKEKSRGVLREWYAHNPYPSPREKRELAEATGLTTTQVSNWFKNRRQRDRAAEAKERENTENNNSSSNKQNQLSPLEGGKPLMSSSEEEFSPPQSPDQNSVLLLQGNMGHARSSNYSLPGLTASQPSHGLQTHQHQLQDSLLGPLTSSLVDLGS
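GST-Six1 + His-Eya2 (5X stock: 250/500 nM); Tris pH 8.0, 300 mM NaCl, 0.05% BSA, 0.02% Tween 20; GSH donor/Ni acceptor beads; 1 h 37 °C dark; AlphaScreen readout.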
TRPML1 ag: human mucolipin-1 channel agonism. AID 624414. activation, % (no concentration beside the values). TRPML1-expressing cells, Ca2+ dye fluorescence, FDSS; host cell line not named in the record; reference of the full effect not given here. Q9GZU1. 0.12% of 410,000 active; in the data active = activation above about 50%; inconclusive = about 30% to 50%; inactive = below about 30%; note: 0% is about no effect; the text of the record puts the active cut at 80%
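Agonist activity was taken from a 110 s kinetic Ca2+ dye read on the FDSS after pinning compounds onto TRPML1-DL cells. The cells were seeded at 1,500/well with Tet inducer, incubated about 16 h, then dye-loaded at room temperature.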
TRPML1 inh: inhibitors of human TRPML1 channel. TRPML1-inducible cells, Ca2+ dye fluorescence, FDSS; active compounds read low; inhibition of EC80 agonist-evoked calcium signal. activity change, negative = inhibition, % (concentration not given with the values). 0.02% of 390,000 active. AID 624415; in the data active means activity change below about -50%; inconclusive means about -30% to -50%; inactive means above about -30%;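 note: stimulus is agonist 54-4 at its EC80 concentration; % is set by controls: 0 for no effect and ±100 for the full control effect; the text of the record puts the active cut at -80%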
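Tet-induced TRPML1-DL cells loaded with Ca8 no-wash calcium dye were read kinetically on FDSS. Compound addition was followed by EC80 agonist 54-4 (4 uM final); inhibition was read over 110 s.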
PINK1 expr mod: PINK1 expression modulation | 0.2% of 410,000 active | PINK1 immunofluorescence, high-content cytometry, 24 h | Potency, µM (highest dose often 76.6 µM), for the others: at the top dose activation (PINK1 increase), usual class: activators; active = well fitted activation curve with a large enough effect; inconclusive = small, poorly fitted or top-dose-only effect; inactive = flat fitted curve, though single readings scatter; cell line not stated here;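 note: potency is the fitted concentration of half-maximal effect; % of control where 0% means no effect; nearly all actives have a fitted effect of over 65% in size; a mitochondrial uncoupler was the plate control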
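Compound titrations (5 concentrations, 24 h) on a stable cell line; DMSO and CCCP controls. Endpoint: fixed-cell PINK1 immunofluorescence with mitochondrial, cell and nuclear markers, scanned by microplate cytometer.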
CtBP-E1A blk: blocks the CtBP interaction with E1A; AlphaScreen GST-E1A/His-CtBP binding, 1536-well; active compounds read low; control for the full effect not named in the record; activity change, % (no concentration beside the values); 0.49% of 340,000 active; in the data active means activity change below about -65%; inconclusive means about -30% to -65%; inactive means above about -30%; note: % is set by controls: 0 for no effect and ±100 for the full control effect
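Protein mix (5X: 125 nM each GST-E1A, His-CtBP) was incubated with pinned compound 2 h at 37 deg C in dark, in 50 mM Tris pH 8.0 buffer with 300 mM NaCl. Glutathione donor and nickel acceptor beads followed; AlphaScreen signal read after 1 h.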
D2 agonist: activates the human D2 dopamine receptor; 0.084% of 360,000 active; AID 624465; activation, % (no concentration beside the values); DiscoveRx PathHunter D2 beta-arrestin, luminescence, 90 min; 100% = 57 uM dopamine signal; in the data active = activation above about 40%; inconclusive = about 15% to 40%; inactive = below about 15%; note: compound concentration not given in the record; the text of the record calls up to 30% inactive
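Agonist mode: compounds alone added to overnight-plated D2 PathHunter cells for 90 min at 37 C, with 57 uM final dopamine (EC100) defining full response. Beta-arrestin recruitment detected by chemiluminescent reagent, read after 1 h at ambient temperature.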
An asterisk follows results filed as active; ? = inconclusive; . = no result given; & = joins results of further samples; [ ] = dose if it differs, or a comment.

cpd	canonical_smiles	Six1-Eya2 blk	TRPML1 ag	TRPML1 inh	PINK1 expr mod	CtBP-E1A blk	D2 agonist
1	COC(=O)C(NC(=O)c1ccccc1)c1ccccc1 (centres undefined)	7	-0.1	-13	-1.5%	-1	-1.5
2	O=C(NCc1ccco1)Nc1ccccc1Cl	-1	-0.8	-18	-0.4%	0	-1.2
3	COCCNC(=O)C1(C)CCCN(C(=O)c2ccc(F)c(Cl)c2)C1 (centres undefined)	5	-0.6	.	1.6%	2	5.4
4	c1cn2c(NC3CCCC3)c(-c3ccc(N4CCOCC4)cc3)nc2cn1	0	-0.4	7	0.1%	2	5.9
5	CC1CCCCC12NC(=O)N(CC(=O)Nc1ccc(OC(F)F)cc1)C2=O (centres undefined)	0	0.2	11	0.3%	5	-1.1
6	O=C(C[C@H]1C/C=C\CC[C@@H](Cc2ccc(F)cc2)C(=O)OC[C@H]2CCCN2C1=O)N[C@@H](CO)Cc1ccccc1	0	2.4	-7	-0.8%	3	-0.3
7	CC1CCN(Cc2c(C(=O)N/N=C/c3ccc(C(C)(C)C)cc3)nnn2-c2nonc2N)CC1	0	0.4	24	2.1%	.	5.8
8	Cn1cncc1C#Cc1c(-c2ccc(S(C)(=O)=O)cc2)sc2ccccc12	35	0.7	19	1.5%	47	0.9
9	CC(C)C(c1nnnn1C1CCCCC1)N1CCN(C(=O)c2ccco2)CC1 (centres undefined)	-3	-0.3	4	1.1%	6	-0.6
10	Cc1ccc(OCC(=O)Nc2ccc3c4c(cccc24)CC3)c(C)c1	21	1.8	4	2.6%	-4	-2.9

Further entries.
cpd	canonical_smiles	Six1-Eya2 blk	TRPML1 ag	TRPML1 inh	PINK1 expr mod	CtBP-E1A blk	D2 agonist
11	CCN(C(=O)c1ccc(Br)cc1)c1ccccc1	4	1.2	40	5.9%	-1	-2.9
12	NC(=O)c1nsc(C(=O)N(CC(=O)NCc2ccccc2)c2cccc(F)c2)c1N	-9	-1.9	4	0.8%	-2	-6.5
13	C[C@@H]1CN([C@H](C)CO)C(=O)CCCn2cc(nn2)CO[C@H]1CN(C)S(=O)(=O)c1ccc2c(c1)OCCCO2	8	0.0	-7	0.2%	-14	-8.9
14	Cc1ccc(C)c(C(C)NC(=O)Cc2cccs2)c1 (centres undefined)	4	-0.2	9	-1.6%	6	1.5
15	Cc1ccc(C(=O)C2CCN(C(=S)NCCCOC(C)C)CC2)cc1	5	-0.1	-5	2.5%	-4	-0.4
16	NNC(=O)c1sc2nc(N3CCOCC3)c3c(c2c1N)CCCC3	-3	-0.8	-3	2.2%	.	-3.8
17	Nc1nnc(COc2cccc(C(F)(F)F)c2)s1	4	-0.8	-8	3.5%	12	-1.3
18	CCC(CC)C(=O)Nc1nnc(SCc2cc(=O)n3cccc(C)c3n2)s1	.	1.5	-12	3.5%	.	.
19	Cc1ccc(S(=O)(=O)NNC(=O)c2ccc3ccccc3n2)cc1	7	1.1	19	-2.4%	-5	-2.8
20	Cn1c(=O)oc2cc(S(=O)(=O)NCCC(=O)NCCc3ccc(Cl)cc3)ccc21	-1	-0.5	-1	0.2%[38.3 µM]	-1	0.5

(further entries)
cpd	canonical_smiles	Six1-Eya2 blk	TRPML1 ag	TRPML1 inh	PINK1 expr mod	CtBP-E1A blk	D2 agonist
21	O=C1NCC(COc2ccc(Cl)cc2)O1 (centres undefined)	5	-0.1	7	-1.7%	0	-2.2
22	O=C(C1CCC1)N1CCN(S(=O)(=O)c2cc(F)ccc2F)CC1	5	1.2	-21	1.6%	11	7.7
23	Cc1cc(C)cc(NS(=O)(=O)c2ccc(-c3cc(C)no3)cc2)c1	.	-0.5	24	7.4%	.	.
24	O=C(COC(=O)c1ncc(Cl)c(Cl)c1Cl)Nc1cccnc1Cl	7	0.6	-7	0.0%	-2	-5.5
25	Cc1csc(NC(=O)CSc2nc(=O)n(CCCN(C)C)c3c2CCC3)n1	-1	0.0	-14	-0.8%	-1	-4.0
26	CC(C)c1cccc(C(C)C)c1NC(=O)CN1C(=O)NC2(CCCCCCC2)C1=O	-1	-0.8	-5	-0.1%	4	1.0
27	O=C(COc1ccc(Cl)cc1)NCc1ccccc1	0	.	.	0.3%	.	2.6
28	O=C(N1CCOCC1)C(F)(F)C(=O)N1CCOCC1	0	1.6	10	2.0%	-3	-1.1
29	CCOC(=O)C1CCN(C(=O)CN(C)S(=O)(=O)c2cc(C)ccc2OC)CC1	2	-0.5	-4	6.1%[38.3 µM]	2	-2.4
30	C/C(=N\NC(=O)c1csc(C)c1C)c1ccco1	-2	-0.8	5	0.2%	-3	-4.3

(next part)
cpd	canonical_smiles	Six1-Eya2 blk	TRPML1 ag	TRPML1 inh	PINK1 expr mod	CtBP-E1A blk	D2 agonist
31	COC(=O)c1ccc(CNC(=O)c2coc3ccccc3c2=O)cc1	5	0.0	5	0.3%	.	3.6
32	CCOC(=O)C1=C(CC)Nc2ccccc2N/C1=N\S(=O)(=O)c1ccc2ccccc2c1	?	-0.1	19	2.7%	1	-1.7
33	O=C1/C(=C/c2cccc(Cl)c2)CSc2sccc21	0	1.8	-4	2.9%	13	-5.4
34	O=C(NC1CCN(Cc2cccc([N+](=O)[O-])c2)CC1)c1ccccc1	-3	1.6	-26	-2.4%	-6	4.0
35	CC(=O)C(C(C)=O)C1(O)C(=O)c2ccccc2C1=O	0	1.2	-6	15%	0	-15
36	Cn1nccc1C(=O)Nc1ccc(S(=O)(=O)N2CCCC2)cc1	-17	0.6	12	1.0%	-10	-12
37	COc1cc(OC)cc(-c2oc(=O)c3cc(OC)c(OC)cc3c2/C=C/c2ccc(F)cc2)c1	8	1.5	-3	1.8%	4	1.2
38	c1ccc(Cn2c(CNc3nc4ccccc4n3CCN3CCCCC3)nc3ccccc32)cc1	-23	-1.5	20	9.3%	-18	-2.6
39	O=C(CN(CCO)Cc1ccccc1)N1CCN(S(=O)(=O)c2ccccc2)CC1	0	-0.2	10	-1.7%	-1	-0.7
40	Cc1ccc(C2CC(c3cccc(Br)c3)n3nc(N)nc3N2)cc1 (centres undefined)	-6	0.0	13	3.6%	-1	-2.0

Of the compounds above, these contain bromine:
cpd	canonical_smiles	Six1-Eya2 blk	TRPML1 ag	TRPML1 inh	PINK1 expr mod	CtBP-E1A blk	D2 agonist
11	CCN(C(=O)c1ccc(Br)cc1)c1ccccc1	4	1.2	40	5.9%	-1	-2.9
40	Cc1ccc(C2CC(c3cccc(Br)c3)n3nc(N)nc3N2)cc1 (centres undefined)	-6	0.0	13	3.6%	-1	-2.0

Next structures follow:
cpd	canonical_smiles	Six1-Eya2 blk	TRPML1 ag	TRPML1 inh	PINK1 expr mod	CtBP-E1A blk	D2 agonist
41	Cc1ccccc1-c1cc(C(=O)Nc2nc3c(s2)CCCC3)c2ccccc2n1	-15	2.9	-11	7.4%[38.3 µM]	-19	-1.4
42	O=C(/C=C/c1ccco1)N(c1ccccn1)c1ccccn1	?	-0.7	46	2.0%	-12	2.9
43	CCN(C(=O)CSc1nc2ccccc2n1Cc1cc(C)ccc1C)c1ccccc1	.	0.2	24	2.4%	.	.
44	Cc1ccccc1/C=c1\s/c(=C\C(=O)C(C)(C)C)[nH]c1=O	?	-0.2	4	16%	-14	-4.2
45	COCc1c(C(=O)N/N=C/c2ccco2)nnn1-c1nonc1N	-4	0.1	11	3.9%	-5	0.2
46	CC1CCC2(CC1)NC(=O)N(NC(=O)C1CCN(C(=O)c3ccc(Cl)cc3)CC1)C2=O (centres undefined)	-2	-0.3	-6	0.1%	3	-4.3
47	O=S(=O)(Nc1ccc(Cc2ccncc2)cc1)c1ccc(Cl)cc1	6	-0.2	-8	3.7%	19	5.4
48	CNC(=O)/C(C#N)=C/c1c(N2CCN(c3cccc(Cl)c3)CC2)nc2c(C)cccn2c1=O	-8	2.6	9	5.4%	-17	-3.4
49	Cc1cc2ncn(CC(O)COC3CCCCC3)c2cc1C (centres undefined)	1	-0.8	-15	1.3%	5	-0.1
50	Cn1c(N=NC(=O)c2ccccc2)c(O)c2ccccc21	?	0.3	-15	1.4%	?	-4.1

Other results.
cpd	canonical_smiles	Six1-Eya2 blk	TRPML1 ag	TRPML1 inh	PINK1 expr mod	CtBP-E1A blk	D2 agonist
51	Clc1ccc(-c2noc(CN(Cc3ccccn3)CC3CCCO3)n2)cc1 (centres undefined)	-3	-0.3	6	-0.7%	-7	-0.1
52	CCNc1nnc(CSc2nc3ccccc3s2)s1	1	1.8	2	-1.7%	2	-0.2
53	Cc1ccc(NC(=O)Cn2nc(C)c(S(=O)(=O)N(C)C)c2C)cc1	5	0.3	13	-0.5%	.	-0.7
54	O=C(Cn1cc(C(F)(F)F)ccc1=O)NCC1CCCO1 (centres undefined)	22	0.8	-20	0.2%	4	-4.6
55	O=C(O)c1cnc(-c2ccccc2)nc1C(F)(F)F	5	0.0	-10	0.9%	2	-2.7
56	CCCn1c(=O)c(C(=O)NNS(=O)(=O)c2ccc(NC(=O)OC)cc2)c(O)c2ccccc21	8	1.2	47	-1.1%	0	-5.1
57	CCOc1ccc(OCC)c(NS(=O)(=O)c2c(C(=O)N3CCCCCC3)c(C)n(C)c2C)c1	.	0.6	-4	-0.3%	.	.
58	CCCCCCCCOc1ccc(C(=O)O)cc1	6	-0.8	-4	1.1%	6	1.7
59	Cc1ccccc1S(=O)(=O)Cc1ccc(C(=O)NC2CCC(C)CC2)o1 (centres undefined)	1	0.7&1.3	-1&9	-0.8%&1.0%	3	9.8
60	CCCCC(=O)Nc1ccc(NC(=O)c2ccccc2OC)cn1	-1	-1.3	19	-0.8%	4	-1.1

Other records follow.
cpd	canonical_smiles	Six1-Eya2 blk	TRPML1 ag	TRPML1 inh	PINK1 expr mod	CtBP-E1A blk	D2 agonist
61	CSCCC(NC(=O)COc1ccccc1)C(=O)N1CCN(c2ccccc2)CC1 (centres undefined)	0	1.6	29	-1.3%	-3	0.4
62	Fc1ccccc1CNCc1ccc2c(c1)OCO2	-5	-0.3	29	0.8%	.	-4.2
63	COc1ccccc1/C=N/NC(=O)c1cccc(NC(=O)c2ccccc2Cl)c1	-3	3.0	1	3.7%	0	1.8
64	CN(C)C(=O)N1CCc2ccc([N+](=O)[O-])cc21	5	-0.5	-1	1.0%	5	-8.7
65	C=C(C)c1cccc(C(C)(C)NC(=O)NC(c2ccccc2)c2ccc(OC)cc2)c1 (centres undefined)	3	2.2	17	-0.1%	12	-2.3
66	Cc1cccc(NC(=O)CSc2nnc(CNC(=O)c3ccc(S(=O)(=O)N(C)C)cc3)n2-c2cccc(C)c2)c1	-8	0.5	-10	1.8%	-4	0.1
67	CC1CCN(S(=O)(=O)c2cc(C(=O)N3CCN(c4ncccn4)CC3)ccc2Br)CC1	-2	2.8	41	2.4%	-2	-5.5
68	CCc1ccc2[nH]c(=O)c(CN(Cc3ccccc3OC)Cc3nnnn3Cc3ccco3)cc2c1	-13	-0.6	-23	-3.8%	-6	-3.7

No enrichment for hits (roughly 1% active in at least one column).
